Screening results (PubChem)
KCNQ2 enhance: enhances the rat KCNQ2 potassium channel | O88943 | CHO-K1 KCNQ2, FluxOR thallium flux fluorescence; stronger effect = higher value | B-score at 10 µM | actives 0.54% (n = 310,000);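 active = fluorescence ratio B-score at least 3 SD of library B-scores, with initial fluorescence B-score within 3 SD, cut at about 5.3 in these data; same plate scores as AID 2156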;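 also: B-score of peak minus minimum over baseline fluorescence ratio after K+ and Tl+ stimulus; positive B-score means potentiation of KCNQ2 with more thallium influx and brighter signal; only the inactives scoring about 0 or higher are listed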
Target sequence (O88943 whole entry, looked up): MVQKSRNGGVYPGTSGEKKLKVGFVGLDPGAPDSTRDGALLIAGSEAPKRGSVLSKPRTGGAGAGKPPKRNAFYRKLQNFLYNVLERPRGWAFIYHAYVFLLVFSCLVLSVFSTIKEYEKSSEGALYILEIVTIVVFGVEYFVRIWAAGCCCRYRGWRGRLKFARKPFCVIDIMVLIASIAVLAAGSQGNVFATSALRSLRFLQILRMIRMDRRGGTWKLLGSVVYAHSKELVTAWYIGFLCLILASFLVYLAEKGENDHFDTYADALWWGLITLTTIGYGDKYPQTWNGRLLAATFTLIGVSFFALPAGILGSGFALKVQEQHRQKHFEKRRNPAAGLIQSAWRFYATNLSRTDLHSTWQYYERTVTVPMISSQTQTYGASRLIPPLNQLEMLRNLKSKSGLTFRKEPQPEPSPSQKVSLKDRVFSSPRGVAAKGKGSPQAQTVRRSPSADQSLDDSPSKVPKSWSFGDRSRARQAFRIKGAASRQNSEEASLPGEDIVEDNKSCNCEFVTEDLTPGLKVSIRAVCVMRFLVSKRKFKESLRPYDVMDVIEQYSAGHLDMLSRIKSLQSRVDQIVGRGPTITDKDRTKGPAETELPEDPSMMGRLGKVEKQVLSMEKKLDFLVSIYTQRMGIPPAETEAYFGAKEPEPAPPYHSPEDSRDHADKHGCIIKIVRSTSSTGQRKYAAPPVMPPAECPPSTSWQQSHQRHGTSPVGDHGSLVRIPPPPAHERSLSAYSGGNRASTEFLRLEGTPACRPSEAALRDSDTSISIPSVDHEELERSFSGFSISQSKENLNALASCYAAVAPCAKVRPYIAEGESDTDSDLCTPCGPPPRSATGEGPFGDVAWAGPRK
KCNQ2 enhance baseline: recorded beside KCNQ2 enhance, whose call it bears; B-score; compound at 10 µM; measured here: initial fluorescence intensity artifact check;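 brightness before thallium and not channel activity; 0 = typical well and far values either way flag optical interference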
Active calls of the source: *. A portion of the library, so the mix of outcomes need not match the whole.

Every second line gives: KCNQ2 enhance	KCNQ2 enhance baseline
1: CC#CCCCC(=O)Nc1cc(OC)nc(OC)n1
  0.36	-0.5
2: Cc1cc(C)c2c(=O)n(CC(=O)NC3CCCC3)sc2n1
  4.15	-1.95
3: Cc1ccccc1S(=O)(=O)Cc1ccc(C(=O)N(C)C2CCCCC2)o1
  1.35	0.5
4: CC(C)OC(=O)CSc1nc(N)c(C#N)c(-c2ccco2)c1C#N
  1.53	-1.35
5: Cc1c(CCC(=O)O)c(=O)oc2c(C)c(OCc3cc4c(cc3Cl)OCO4)ccc12
  1.73	0.58
6: CCCC(C(=O)NC1CCCC1)N(Cc1ccccc1Cl)C(=O)c1snc(C(N)=O)c1N (stereo not drawn)
  0.32	-0.18
7: Cc1ccc(N2CC(C(=O)Nc3c4c(nn3C(C)(C)C)CS(=O)(=O)C4)CC2=O)cc1C (stereo not drawn)
  1.03	-2.05
8: CCOc1cc(-c2c(C)c(C)nc(N)c2C#N)ccc1O
  0.4	0.89
9: COc1ccc2[nH]c3c(=O)n(CCN4CCOCC4)cnc3c2c1
  1.93	-5.38
10: COc1cc(C(=O)Nc2sc(C(=O)N3CCOCC3)c(C)c2C#N)cc(OC)c1OC
  0.8	0.25
11: COc1ccccc1CNC(=O)COC(=O)c1cc(C)oc1C
  1.46	0.5
12: CCOc1ccc2[nH]cc(C(=O)O)c(=O)c2c1
  0.14	0.42
13: O=C(NCC1CCCO1)c1nn2c(C(F)(F)F)cc(-c3cccs3)nc2c1Cl (stereo not drawn)
  0.6	-0.44
14: CCCNC(=O)c1cc2cc([N+](=O)[O-])ccc2s1
  0.52	-0.04
15: O=[N+]([O-])c1ccc(NC(=S)N2CCN(c3ccc(F)cc3)CC2)cc1
  2.13	-0.59
16: O=C(CN1CCC(O)(c2ccccc2)CC1)Nc1ccc2c(c1)OCCO2
  0.21	0.51
17: CC(NC(=O)CNC(=O)c1sc2ccccc2c1Cl)c1ccc(S(N)(=O)=O)cc1 (stereo not drawn)
  1.08	0.93
18: CCCCc1cc(=O)oc2cc(OCC(=O)NCC3CCC(C(=O)O)CC3)ccc12 (stereo not drawn)
  1.37	0.11
19: CC(=O)Nc1ccc(CCc2nc3ccccc3[nH]2)cc1
  0.01	0.92
20: COc1ccc(C(=O)NCc2nnc(SCC(=O)Nc3nnc(C)s3)o2)cc1OC
  1.83	-1.1
21: COc1cc(C)nc(N2CCCC(C(=O)Nc3ccccc3Br)C2)n1 (stereo not drawn)
  0.26	-2.5
22: Cc1ccc(Cl)cc1NC(=O)c1cc(NC(=O)CCCC(=O)O)ccc1N1CCCCC1
  0.28	1.19
23: COC(=O)c1ccc(Cn2cc(Cl)cn2)cc1
  0.35	0.57
24: O=C(Nc1ccc(F)c([N+](=O)[O-])c1)c1ccc2c(c1)OCCO2
  0.32	1.35
25: C=CCNC(=O)CN(Cc1ccccc1)S(=O)(=O)c1ccccc1
  1.24	-2.11
26: COc1cccc(NC(=O)Nc2nnc(Cc3ccccc3F)s2)c1
  3.53	-1.42
27: O=C(Nc1ccc2nc(-c3ccco3)[nH]c2c1)c1ccco1
  1.53	-0.31
28: O=S(=O)(c1ccccc1)N1CCCC1c1nc2ccccc2s1 (stereo not drawn)
  1.02	-1.62
29: COC(=O)c1ccc(/C=N/NC(=O)C(=O)N2CCCCCC2)cc1
  1.89	0.22
30: CC(C)n1cc(C(=O)c2ccccc2O)cc(C#N)c1=O
  0.04	-0.09
31: CC(C)CC(=O)Nc1ccccc1N1CCOCC1
  0.8	0.82
32: O=C(CNC(=O)c1cn2ccccc2n1)Nc1ccc(F)c(F)c1
  0.36	-1.31
33: COC(=O)C(Cc1ccccc1)NC(=O)CCC(=O)NC(C)CCc1ccccc1 (stereo not drawn)
  0.21	0.78
34: O=c1cc(-c2ccccc2)nc2cc(-c3ccco3)[nH]n12
  3.31	-0.64
35: Cc1cccc2sc(N(CCN(C)C)C(=O)/C=C/c3cccs3)nc12
  0.33	-1.96
36: COc1ccc(-n2ncc3c(N4CCN(c5cc(C)ccc5C)CC4)ncnc32)cc1
  0.26	-1.39
37: CC(C)CC(=O)N1CCN(C(=O)c2ccc(-c3ccccc3)cc2)CC1
  0.27	1.16
38: O=C(NCc1ccccc1)C(=O)NCC1CCCN1S(=O)(=O)c1cccs1 (stereo not drawn)
  0.01	-1.15
39: O=C1CSC(c2cccnc2)N1Cc1ccc(Cl)cc1Cl (stereo not drawn)
  2.85	0.79
40: COc1ccc(Cl)cc1C(=O)Nc1ccc(S(=O)(=O)N2CCCC2)cc1
  0.79	-2.72

Excerpt, entries 39–40
Every second line gives: KCNQ2 enhance	KCNQ2 enhance baseline
39: O=C1CSC(c2cccnc2)N1Cc1ccc(Cl)cc1Cl (stereo not drawn)
  2.85	0.79
40: COc1ccc(Cl)cc1C(=O)Nc1ccc(S(=O)(=O)N2CCCC2)cc1
  0.79	-2.72

Next results follow.
Every second line gives: KCNQ2 enhance	KCNQ2 enhance baseline
41: COc1ccc(C)cc1NC(=O)NNC(=O)C(C)Oc1ccc([N+](=O)[O-])cc1 (stereo not drawn)
  0.23	0.05
42: C[C@@]12C(=O)N(CC3CC3)CC(=O)N1[C@H](/C=C/c1ccccc1)[C@@H]1C(=O)N(c3ccccc3)C(=O)[C@@H]12
  0.33	1.28
43: C=CCOc1ccc(/C=C/C(=O)OC(C)C(=O)Nc2ccc(NC(C)=O)cc2)cc1 (stereo not drawn)
  1.54	1.37
44: Cc1cc(NC(=O)CSc2nc(C(C)C)nc3c2c(=O)n(C)c(=O)n3C)no1
  1.31	0.59
45: Nc1nc2n(n1)C(c1ccc(Cl)cc1)CC(c1ccc(F)cc1)N2 (stereo not drawn)
  0.35	0.03
46: O=C(O)/C(=C\c1ccccc1)c1ccccc1
  0.06	-0.79
47: C/C(N)=C(/C#N)C(=O)COc1ccc(Cl)cc1Cl
  0.79	0.35
48: COC(=O)c1cc2occc2n1Cc1nc(-c2ccccc2C)oc1C
  0.33	0.41
49: Cc1cccc(CN2CCN(CCCc3ccccc3)CC2)c1
  1.61	0.87
50: O=C1N=C(N2CCOCC2)S/C1=C/c1ccc(-c2ccccc2Cl)o1
  0.52	-1.93
51: O=S(=O)(c1cccc(S(=O)(=O)N2CCCC2)c1)N1CCCCC1
  0.51	1.12
52: C/C(CC(=O)Nc1ccccn1)=N\NC(=O)C(=O)Nc1cccc(C)c1
  0.02	-1.04
53: COc1ccc(/C=N/N=C2\SC(CC(=O)O)C(=O)N2c2ccccc2)c(OC)c1 (stereo not drawn)
  1.76	0.05
54: COc1cccc(CNC(=O)c2ccc3c(c2)S(=O)(=O)N=C2CCCCCN23)c1
  0.6	-1.7
55: Oc1ccc(-c2nnc(-c3ccc(O)cc3)nn2)cc1
  0.81	-0.13
56: COc1ccccc1NC(=O)CCSCCC(=O)Nc1ccccc1OC
  0.76	-1.37
57: CC(=O)N(C(C)=O)c1c(N2CCCC2)c2ccccc2oc1=O
  0.69	0.05
58: CCC(=O)Nc1ccc(Cl)c(NC(=S)NC(=O)c2cc3ccccc3o2)c1
  1.5	0.39
59: CN1CCN(S(=O)(=O)c2ccc(N3CCc4ccccc4C3)nc2)CC1
  0.13	1.07
60: O=C(Nc1ccc(C(=O)N2CCCCC2)cc1)c1cccc([N+](=O)[O-])c1
  0.19	0.3

Reprinted from the part before: 4 entries; new compounds follow.
Every second line gives: KCNQ2 enhance	KCNQ2 enhance baseline
57: CC(=O)N(C(C)=O)c1c(N2CCCC2)c2ccccc2oc1=O
  0.69	0.05
58: CCC(=O)Nc1ccc(Cl)c(NC(=S)NC(=O)c2cc3ccccc3o2)c1
  1.5	0.39
59: CN1CCN(S(=O)(=O)c2ccc(N3CCc4ccccc4C3)nc2)CC1
  0.13	1.07
60: O=C(Nc1ccc(C(=O)N2CCCCC2)cc1)c1cccc([N+](=O)[O-])c1
  0.19	0.3
61: CCc1c(C(=O)Nc2ncn(Cc3cccc(C)c3)n2)csc1C
  0.03	0.13
62: CCCC(C)C(=O)Nc1ccc(Cl)cn1 (stereo not drawn)
  0.12	0.02
63: COc1cc(Cl)nn(-c2ccccc2)c1=O
  0.7	1.17
64: CN1CCN(S(=O)(=O)c2ccc(NC(=O)c3ccc(F)cc3Cl)cc2)CC1
  1.62	-0.22
65: CN1C(=O)C(CC(=O)Nc2ccc(F)cc2)N(Cc2cccs2)C1=S (stereo not drawn)
  0.01	0.2
66: CC(=O)N1CCc2cc(S(=O)(=O)NCCCN3CCCCC3)ccc21
  0.73	1.49
67: CCSc1nnc(NC(=O)COc2ccccc2[N+](=O)[O-])s1
  1.2	1.75
68: O=C(CSc1ncn[nH]1)c1ccc2c(c1)OCCO2
  1.39	-1.01
69: Cc1ccc(OCC(=O)n2cnnc2N)c(C)c1
  0.59	0
70: CC1(C)CC(NC(=O)COc2ccc3ccccc3c2)CC(C)(C)N1
  0.76	0.34
71: C=Cn1nc(C)c2ccccc2c1=O
  0.01	1.52
72: Cc1cc(C)c2ccc(Cl)cc2n1
  0.1	0.91
73: O=C(O)CCN1C(=O)C(=C2CCCCCC2)SC1=S
  0.12	1.39
74: COc1ccc(-n2c(SCC(=O)Nc3ccc4c(c3)OCO4)nc3ccccc3c2=O)cc1
  0.13	1.66
75: COc1cc2nc(NC(=O)c3ccccc3)sc(=O)c2cc1OC
  0.22	-0.07
76: CCCCCCOc1ccc(N2C(=O)CC(N3CCC(C(=O)OCC)CC3)C2=O)cc1 (stereo not drawn)
  0.91	0.4
77: CCOC(=O)CNC(=O)CSc1nnc(Cn2c(=O)sc3ccccc32)n1C
  0.36	-1.42
78: O=C(NCCC(=O)N1CCC2(CC1)NCCc1[nH]cnc12)c1ccc(Br)cc1
  1.03	0.61
79: Cc1cc([N+](=O)[O-])ccc1NC(=O)CCC(=O)N1CCCC1
  0.07	2.33
80: CS(=O)(=O)Nc1ccccc1C(=O)Nc1ccccc1Cl
  1.53	-0.02
81: CS(=O)(=O)Nc1cccc(S(=O)(=O)N2CCN(C(=O)c3ccccc3)CC2)c1
  0.75	1.59
82: O=C(NCCN1CCOCC1)c1cccc(NS(=O)(=O)c2ccc(Br)cc2)c1
  0.91	0.15
83: Cn1nccc1NC(=O)Nc1cccc(Br)c1
  1.71	0.02
84: CC(C)(C)NC(=O)NC(=O)COC(=O)C1=COCCO1
  0.1	-0.12
85: O=C(O)c1ccc(-c2ccc(-c3ccccc3)cc2)s1
  0.09	-0.99
86: Cc1cccc(C)c1NC(=O)CN(C)C(=O)CC1OC(=O)c2ccccc21 (stereo not drawn)
  0.09	-0.71
87: CCCNC(=O)Cn1c(=O)cnc2ccccc21
  0.19	1.87
88: COc1ccccc1N1CCN(C(=O)c2cc3c(=O)n4cccc(C)c4nc3s2)CC1
  0.99	-0.31
89: Cn1ncc(N=Cc2ccccc2O)c1C(=O)N1CCOCC1
  0.17	-0.11
90: CC1(C)Cn2c(nnc2-c2cccc(O)c2)S1
  1.5	-0.93
91: Cc1ccc(NC(=O)N2CCCC2)cc1Cl
  1.45	-0.96
92: COc1ccc(CCNC(=O)CCc2ccc(S(=O)(=O)NC(C)C)cc2)cc1OC
  0.3	0.24
93: CCOC(=O)N1CCN(C(=O)c2cccc(NS(=O)(=O)c3ccc(F)c(F)c3)c2)CC1
  0.19	-0.16
94: COCCCNC(=O)Cn1nnc(-c2ccc(NC(=O)c3ccccc3OC)cc2)n1
  1.58	1.01
95: Cc1ccc(S(=O)(=O)N2CCOCC2)cc1C(=O)NCc1ccc(F)cc1
  0.01	-0.72
96: Cc1ccc2nc3c(cc(C(=O)NCCc4ccccc4)c(=N)n3CC3CCCO3)c(=O)n2c1 (stereo not drawn)
  0.8	1.68
97: CC(=O)Nc1ccc(NC(=O)CN2CCCC(C)C2)c(Cl)c1 (stereo not drawn)
  0.33	-0.09
98: Cc1ccc(S(=O)(=O)Nc2ccc(NC(=O)Nc3cccc(C(F)(F)F)c3)cc2)cc1
  0.68	0
99: COc1ccc(CN2C(=O)c3cccnc3C2=O)cc1S(=O)(=O)NC(C)C
  0.84	0.34
100: CCn1c(=O)c(CCC(=O)N2CCN(c3ccccn3)CC2)c(C)c2c(C)nn(-c3ccccc3)c21
  0.67	0.37
101: O=C(O)CSc1nc2c(cnn2-c2ccccc2)c(=O)n1-c1ccc(Br)cc1
  0.36	2.19
102: Cc1ccc(C23CC4CC(CC(C(=O)NC(C(=O)O)C(C)C)(C4)C2)C3)cc1 (stereo not drawn)
  1.63	-0.23
103: O=C(O)C(Cc1ccccc1)n1cnnn1 (stereo not drawn)
  0.63	-2.24
104: O=[N+]([O-])c1ccc2[nH]nc(-c3ccccc3)c2c1
  2.05	-0.09
105: Cc1nc(NC2CCCCC2)c2nnn(Cc3ccccc3Cl)c2n1
  0.02	0.49
106: NCCCC[C@@H]1NC(=O)c2cc([N+](=O)[O-])cc(F)c2NCCCC[C@@H](C(N)=O)NC(=O)CNC1=O
  0.51	-0.3
107: CSc1ccccc1OCc1cc(C(=O)NCCn2nc(C)cc2C)no1
  0.31	-0.54
108: CCOc1ccc(OCC)c(NC(=O)Cn2c(C)nc3ccccc3c2=O)c1
  0.62	-0.38
109: Cn1c(N2CCC(C(N)=O)CC2)nc2c1c(=O)n(Cc1ccc(Br)cc1)c(=O)n2C
  3.38	-0.85
110: CC(C)CC(=O)/C(=C/c1ccc(N(C)C)cc1)n1cncn1
  1.19	0.92
111: C=CCN(CC=C)C(=O)c1cccc(OC2CCN(CC(C)(C)C)CC2)c1
  0.22	-1.55
